Screening results: PubChem, several laboratories
Vif A3G = HIV-1 Vif–A3G interaction blockers – biochemical, TR-FRET, GST-Vif 1-94, biotin-A3G peptide, dose response retest, primary screen (AID 1117319); TR-FRET GST-Vif / biotin-A3G peptide binding; higher % means a stronger effect; test concentration not given here; strong numbers were not always called active; inhibition, %; hits with a dose series show IC50 in µM; 260,000 compounds, 0.57% hits;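 active = above the screen mean plus three standard deviations and confirmed in dose response; inconclusive = results disagree or hit not tested in dose response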;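 also: Vif residues 1-94 fused to GST binding biotinylated APOBEC3G peptide 110-148; 0% = full assay without inhibitor and 100% = GST in place of GST-Vif; retest series ran down from 100 µM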
E coli growth = E. coli growth inhibition; Escherichia coli growth, OD600, 23 h; hits give low values; OD600 absorbance (test concentration not listed); 330,000 compounds, 0.21% hits;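 active = OD600 absorbance below the run mean of sample wells minus 3.6 SD, in any replicate, cut at about 0.56 in these data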;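 also: stock transfer was 300 nL into about 60 µL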
UCH37 inh = inhibitors of human deubiquitinating enzyme UCH37; inhibition, % (no concentration beside the values); purified proteasome/UCH37, Ub-AMC cleavage fluorescence; 330,000 compounds, 0.33% hits; Q9Y5K5;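 active = mean of two replicates above 20%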;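 also: 0% = compound-free wells with enzyme and 100% = wells lacking proteasome; stock transfer was 100 nL into about 20 µL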
Target sequence (Q9Y5K5 whole entry, looked up): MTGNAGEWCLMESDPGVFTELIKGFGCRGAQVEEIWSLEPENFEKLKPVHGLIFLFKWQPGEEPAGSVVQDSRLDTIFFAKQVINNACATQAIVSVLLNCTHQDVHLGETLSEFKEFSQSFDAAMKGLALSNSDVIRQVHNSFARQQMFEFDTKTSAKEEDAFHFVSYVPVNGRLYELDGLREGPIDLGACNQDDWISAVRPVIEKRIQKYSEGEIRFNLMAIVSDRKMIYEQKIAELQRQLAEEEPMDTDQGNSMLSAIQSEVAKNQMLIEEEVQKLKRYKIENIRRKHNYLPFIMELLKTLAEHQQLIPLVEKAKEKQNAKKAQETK
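Material: human UCH37 enzyme supplied as purified proteasome complex / Amount: 0.15 nM proteasome as dispensed / Buffer or medium: pH 7.4 Tris-HCl (50 mM) with ovalbumin, ATP-MgCl2, DTT / Times: preincubation 30 min, reaction 25 min, room temperature / Technique: AMC fluorescence from Ub-AMC cleavage, excitation 355 nm, emission 460 nm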
RanGTP-Impb inh = disruptors of Ran-importin-beta complex formation – biochemical, FRET, CFP-Ran, YFP-importin-beta, homogeneous, primary screen. cell-free CFP-Ran/YFP-importin-beta FRET ratio. inhibition, % (test concentration not listed). 300,000 compounds, 1.1% hits. AID 2216;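 active = most replicates above 15%; inconclusive = exactly half above 15%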;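 also: 0% = DMSO wells and 100% = Ran loaded with GDP instead of GTP; wells of about 40 µL received 100 nL stock; the first replicate is given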
MLL AF4-AF9 inh = MLL-AF4/AF9 protein interaction inhibition; AlphaScreen, biotin-AF4 peptide binding to FLAG-AF9; P42568; inhibition, % at 10 µM; AID 651704; 350,000 compounds, 0.47% hits;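 active = every replicate reaching a set inhibition limit, whatever the replicate mean, cut at about 25% in these data; inconclusive = mean inhibition reaches that limit but some replicates miss it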;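 also: 0% = plate neutral control median and 100% = total signal loss; the record names both 10 and 1 µM as test concentration; the first replicate is given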
Target sequence (P42568 whole entry, looked up): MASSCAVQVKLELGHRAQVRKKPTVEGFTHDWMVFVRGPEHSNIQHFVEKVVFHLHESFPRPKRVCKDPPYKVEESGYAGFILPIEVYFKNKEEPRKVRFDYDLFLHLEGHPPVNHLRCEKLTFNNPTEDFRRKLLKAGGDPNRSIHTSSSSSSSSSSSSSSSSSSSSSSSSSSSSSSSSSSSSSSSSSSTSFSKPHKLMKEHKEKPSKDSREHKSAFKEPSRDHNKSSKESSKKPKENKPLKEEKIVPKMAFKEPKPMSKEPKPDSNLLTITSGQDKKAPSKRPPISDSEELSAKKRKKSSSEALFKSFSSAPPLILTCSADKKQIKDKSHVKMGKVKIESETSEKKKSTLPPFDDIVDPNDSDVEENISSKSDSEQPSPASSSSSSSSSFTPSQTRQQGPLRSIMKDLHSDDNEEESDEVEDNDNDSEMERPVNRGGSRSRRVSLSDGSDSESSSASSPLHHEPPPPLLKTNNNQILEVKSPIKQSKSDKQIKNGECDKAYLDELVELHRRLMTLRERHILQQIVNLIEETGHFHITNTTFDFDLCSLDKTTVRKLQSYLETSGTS
HNF4A DNA FP = change in binding of human HNF4 alpha to DNA | P41235 | HNF4a-FITC DNA binding, fluorescence polarization, 1 h | activity change, % at 10 µM | 360,000 compounds, 0.3% hits; in the data active = activity change above about 30%, passing the limit was not always enough;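 also: controls were the assay level and a saturating level of protein; the project sought stronger binding though the title names inhibitors; some compounds called inactive have numbers as strong as hits; positive values seem to mean higher polarization but the record does not say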
FGF22 binding = FGF22 (human) thermal shift binding; Q9HCT0; recombinant FGF22 thermal shift, SYPRO orange fluorescence; percent of sucrose octasulfate shift, DMSO zero; calls only at 9.99 µM; 340,000 compounds, 1.5% hits; AID 651658;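 active = melting point raised past a set limit in the mean and every replicate; inconclusive = no clear call; three in four hits are not shown here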
Target sequence (Q9HCT0 whole entry, looked up): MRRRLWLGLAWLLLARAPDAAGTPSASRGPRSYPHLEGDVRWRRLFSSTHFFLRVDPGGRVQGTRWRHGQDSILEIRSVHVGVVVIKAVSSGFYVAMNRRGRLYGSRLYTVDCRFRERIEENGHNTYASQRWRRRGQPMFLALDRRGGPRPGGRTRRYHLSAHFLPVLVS
Active calls of the source: *; i = inactive; ? = inconclusive; nt = not tested or not shown. An excerpt; the hit share may differ from the screen's.

SMILES	Vif A3G	E coli growth	UCH37 inh	RanGTP-Impb inh	MLL AF4-AF9 inh	HNF4A DNA FP	FGF22 binding
Cc1ccc(NC(=O)Cn2nc(C(F)(F)F)c3c2CCC3)cc1	1%	0.67	2.2	22*	-0.6	-1.9	i
CCc1cc2c(=O)c(-c3cscn3)coc2c(CN(C)C)c1O	-3%	0.7	-349	-1.9	nt	-1.2	nt
Cc1c(C)c2c(OCC(=O)N3CCC(C(=O)O)CC3)cc3c(c2oc1=O)CCC(C)(C)O3	nt	0.76	i	1.8	nt	-1.0	nt
COCCNc1nc(N)c([N+](=O)[O-])c(N2CCCCCC2)n1	2%	0.61	9.5	-5.6	-2.0	-1.7	i
O=C(Nc1cccnc1)c1cccc(S(=O)(=O)N2CCCC2)c1	4%	0.72	1.3	1.2	-5.1	-2.8	i
CN(c1ccccc1)S(=O)(=O)c1ccc(Cl)c(C(=O)NCC(c2ccco2)N2CCCC2)c1 (stereo unspecified)	-6%	0.71	4.2	nt	14	-2.1	i
COc1ccc(/C=C/C(=O)c2ccc(O)cc2)cc1CN1CCOCC1	5%	0.69	-0.2	0.4	nt	-1.9	nt
CCC(=O)Nc1ccc(S(=O)(=O)Nc2ccc(Cl)nn2)cc1	10%	0.68	2.6	9.0	-3.3	-1.4	i
COc1ccc(N(C(=O)c2cc3ccccc3oc2=O)C2C=CS(=O)(=O)C2)c(OC)c1 (stereo unspecified)	9%	0.67	4.6	1.7	-1.0	1.3	i
Nc1cc(N)nc(SCc2ccccc2Cl)n1	0%	nt	nt	nt	1.9	-1.0	i
COc1ccc(C2CN=NC2C(=O)c2ccccc2)cc1 (stereo unspecified)	7%	nt	nt	nt	0.0	5.5	i
CC1CCCCN1CC(=O)NC(=O)NCc1ccccc1 (stereo unspecified)	2%	0.69	-15	?	nt	1.5	nt
Cc1ccc(Sc2ccc(/C=N/O)cc2[N+](=O)[O-])cc1	9%	nt	nt	0.6	nt	-0.9	nt
CS(=O)(=O)N(CC(=O)Nc1ccccc1C(=O)NCc1ccco1)c1ccccc1F	?	0.72	3.9	0.5	3.7	-4.6	i
CN1CCC(=NNC(=O)CN(c2cccc([N+](=O)[O-])c2)S(=O)(=O)c2ccccc2)CC1	nt	0.7	4.8	-5.4	1.1	2.3	i

The list goes on; it opens with the four that closed the last part.
SMILES	Vif A3G	E coli growth	UCH37 inh	RanGTP-Impb inh	MLL AF4-AF9 inh	HNF4A DNA FP	FGF22 binding
CC1CCCCN1CC(=O)NC(=O)NCc1ccccc1 (stereo unspecified)	2%	0.69	-15	?	nt	1.5	nt
Cc1ccc(Sc2ccc(/C=N/O)cc2[N+](=O)[O-])cc1	9%	nt	nt	0.6	nt	-0.9	nt
CS(=O)(=O)N(CC(=O)Nc1ccccc1C(=O)NCc1ccco1)c1ccccc1F	?	0.72	3.9	0.5	3.7	-4.6	i
CN1CCC(=NNC(=O)CN(c2cccc([N+](=O)[O-])c2)S(=O)(=O)c2ccccc2)CC1	nt	0.7	4.8	-5.4	1.1	2.3	i
CC(=O)C1=C(C)N(CC2CC2)C(=O)N[C@H]1c1ccccc1	?	nt	6.6	2.2	4.0	0.9	i
O=C(Nc1ccc(Cl)cn1)c1ccc(-c2ccc(Cl)c(Cl)c2)o1	nt	0.69	-24	0.1	nt	1.2	nt
O=C(O)c1ccc2c(c1)N(Cc1cccc(F)c1)C(=O)CS2	67%	0.67	1.7	2.1	0.3	-3.0	i
COc1cc(NC(=O)c2sc3ncn(CC(=O)N4CCCCC4C)c(=O)c3c2C)cc(OC)c1OC (stereo unspecified)	3%	nt	nt	nt	-0.5	-3.1	i
CN1CCN(c2ccc(S(=O)(=O)N3CCCCC3)cc2NC(=O)CSCc2ccccc2)CC1	nt	0.73	4.7	?	6.9	-1.0	i
NC(=O)C1CCN(C(=O)CCSCc2ccc(Cl)c(Cl)c2)CC1	9%	0.63	1.8	1.1	0.7	1.4	i
O=C(O)C(CC1CCCCC1)N1CCS(=O)(=O)CC1 (stereo unspecified)	nt	0.7	1.8	-1.6	-0.6	-1.4	i
O=C(CSc1ccccc1)Nc1cc(S(=O)(=O)N2CCOCC2)ccc1N1CCOCC1	-11%	0.63	1.3	-2.7	-0.3	2.1	nt
COC(=O)CSc1ccc(S(=O)(=O)N2CCCCCC2)cc1[N+](=O)[O-]	nt	0.71	3.6	?	-0.9	-1.3	i
CCC1CCC(NC2CCCCNC2=O)CC1 (stereo unspecified)	3%	0.74	-1.3	-3.3	nt	0.3	nt
C/C(=N\N=C(/N)c1nonc1N)c1ccc2c(c1)OCO2	nt	nt	nt	2.6	2.4	-4.4	i
COc1ccc(-c2nc(CS(=O)CC(=O)N3CCN(C)CC3)c(C)o2)cc1 (stereo unspecified)	nt	0.65	1.3	0.2	-0.9	-2.0	i
COc1ccc(-c2nn(-c3ccccc3)cc2C(=O)NC2CCC(C)CC2)cc1 (stereo unspecified)	-12%	0.65	4.8	-3.5	-1.5	1.1	i
COc1ccc(NC(=O)c2ccc(-n3cccn3)nc2)cc1	76%	0.74	-24	6.8	nt	-1.2	nt
Cc1cc(SCC(=O)NC(=O)c2cccn2C)nc2ccccc12	?	0.7	4.7	-1.4	-1.7	3.3	i
O=C(Nc1cccc(S(=O)(=O)N2CCCCCC2)c1)c1ccc2c(c1)OCO2	nt	0.68	1.9	4.3	0.4	3.5	i
CN1CCN(C(=O)/C(=C/c2ccccc2)c2ccccc2)CC1	7%	0.69	0.3	-1.4	nt	1.1	nt
C/C(=N\O)C(=O)NCc1ccncc1	5%	nt	nt	-0.2	nt	-3.8	nt
COc1ccc(NC(=S)N2CCC(Cc3ccccc3)CC2)cc1OC	-5%	0.68	4.5	3.6	4.4	-0.6	i
CCOC(=O)c1[nH]c(C)c(C(=O)OC(C)C(=O)Nc2ncc(Cl)cc2Cl)c1C (stereo unspecified)	-1%	0.68	-1.6	-0.1	nt	1.5	nt
CCOc1ccc(CNc2ccc3c(c2)nc(C)n3C)cc1	2%	0.69	-3.4	nt	nt	0.2	nt
CCS(=O)(=O)c1ccc2oc(SCC(=O)c3c(N)n(C4CC4)c(=O)[nH]c3=O)nc2c1	-1%	0.69	-0.7	nt	-0.5	0.9	i
CN(C)S(=O)(=O)c1ccc(-n2cccc2)cc1	1%	0.68	-0.1	0.1	3.7	5.0	i
Cc1nn(-c2ccccc2)c2c1C(c1ccc(F)cc1)C(C#N)=C(N)O2 (stereo unspecified)	5%	0.7	4.7	6.1	nt	0.4	nt
Cc1ccc(-c2cn3nc(-c4ccccc4)c(-c4ccccc4)nc3n2)cc1	6%	0.72	-58	90*	-23	-39	i
O=C(O)c1cc(N/N=C/c2cccnc2)ccc1Cl	-6%	nt	nt	1.2	7.9	1.6	i
O=C(NC1(C(F)(F)F)NC(=O)N(Cc2cccnc2)C1=O)c1ccc(F)cc1 (stereo unspecified)	0%	0.67	3.1	0.4	nt	0.8	nt
CCCCn1nnnc1SCC(=O)Nc1cccc(C)n1	-5%	0.74	4.8	2.6	nt	1.0	nt
O=S(=O)(CC(c1ccccc1)N1CCCCC1)c1ccc(Cl)cc1 (stereo unspecified)	3%	0.66	4.9	1.0	1.8	0.8	i
CC1CCCCC12NC(=O)N(CC(=O)OCC(=O)c1ccc(OC(F)F)cc1OC(F)F)C2=O (stereo unspecified)	0%	0.68	0.7	0.6	-0.2	0.0	i
N#CCCCSc1nnc(CSc2nc3ccccc3s2)n1-c1ccccc1	nt	0.65	-2.5	1.8	nt	-2.8	nt
COc1ccc(NC(=O)CN2C(=O)COc3ccccc32)cc1OC	0%	0.66	-2.0	0.5	-2.0	0.8	i
O=C(NCCc1c[nH]c2ccccc12)C(=O)NCC1OCCCN1S(=O)(=O)c1ccc(F)cc1 (stereo unspecified)	-2%	0.63	5.8	1.8	1.6	1.3	i
O=C(CSc1nc2cc([N+](=O)[O-])ccc2n1-c1ccc(F)cc1)NC1CCS(=O)(=O)C1 (stereo unspecified)	?	0.62	6.8	0.1	nt	0.5	nt
Cc1nc2cc(NS(=O)(=O)c3c(C)c(C)cc(C)c3C)ccc2s1	?	0.7	0.1	1.3	nt	0.2	nt
COCCCNC(=O)Cn1cc(C(=O)c2cccs2)c2ccccc21	5%	0.68	1.8	1.0	nt	-1.8	nt
O=C(Nc1ccc(F)cc1)c1ccc2c(=O)n(CC3CCCO3)c(=S)[nH]c2c1 (stereo unspecified)	nt	0.68	4.9	-0.6	-0.3	1.0	i
Cn1cnc(S(=O)(=O)N2CCN(C(c3ccccc3)c3ccccc3)CC2)c1	nt	0.65	2.3	?	2.4	4.5	i
O=S(=O)(NCCc1ccccc1)c1ccccc1	nt	0.72	-1.6	1.9	nt	-2.8	nt
COc1ccc(-n2nc([N+](=O)[O-])c(=NCc3ccco3)n2O)cc1	5%	0.67	7.7	12	-2.4	-0.6	i
CS(=O)(=O)c1ccc(C(=O)N2CCN(C(=O)c3ccco3)CC2)cc1	1%	0.68	2.7	nt	-1.0	-1.6	i
CCn1c2nc(SCCN3CCOCC3)nnc2c2cc(C)cc(C)c21	-3%	0.67	6.1	-1.1	6.4	-1.5	i
CCOC(=O)c1c(CN(C)C)n(-c2ccccc2)c2cc(Br)c(O)cc12	3%	0.62	1.6	2.1	5.7	0.7	i
CSc1sc(C)cc1C1C(C#N)=C(N)N(c2cccnc2)C2=C1C(=O)CC(C)(C)C2 (stereo unspecified)	23%	0.75	3.3	2.9	nt	3.8	nt
O=[N+]([O-])c1cccc(S(=O)(=O)Nc2nc3ccccc3nc2Nc2cccc(S(=O)(=O)N3CCCCC3)c2)c1	nt	0.65	8.1	5.3	15	-5.7	i
CC(=O)NCc1ccc(C(=O)COC(=O)COc2ccccc2)s1	7%	0.7	6.9	nt	1.0	0.5	i
CCn1c(Cc2cccs2)nnc1SCC(=O)c1ccc(C)cc1	-3%	0.63	0.5	?	nt	1.5	nt
NC(=O)c1cccc(Nc2nc(C(N)CCc3ccccc3)cs2)n1 (stereo unspecified)	nt	nt	nt	nt	8.6	0.1	i
CCOc1ccc(S(=O)(=O)N(C)c2ccc(OCC(=O)Nc3ccc4[nH]c(=O)[nH]c4c3)cc2)cc1	4%	0.69	4.1	-1.9	nt	0.4	nt
Cc1ccc(S(=O)(=O)NC2(C(F)(F)F)C(=O)Nc3c2c(=O)[nH]c(=O)n3-c2ccccc2)cc1 (stereo unspecified)	nt	0.66	0.0	0.6	nt	0.4	nt
O=C(c1ccc(F)cc1)N(NC(=O)C(O)(c1ccccc1)c1ccccc1)c1ccccc1	nt	0.72	1.0	nt	-9.9	-0.4	i
COc1ccccc1CNC(=O)CN(C)CC(=O)Nc1ccc(F)c(F)c1F	nt	0.66	-1.9	nt	0.5	1.6	i
COc1ccc(COC(=O)N/C=C/c2ccco2)cc1	?	0.7	-4.5	0.7	-1.8	15	i
CCc1cc(C(=O)OCC(=O)N2CCC(c3ccccc3)=N2)sc1C	nt	0.72	5.0	3.1	-1.1	-0.8	i
O=C(CCNC(=O)c1ccc(Cl)cc1)Nc1cccc(S(=O)(=O)N2CCCCCC2)c1	5%	0.67	0.8	2.0	-1.0	0.8	i
O=[N+]([O-])c1ccc(NCCCNS(=O)(=O)c2ccccc2)cc1	?	0.69	4.0	2.2	7.1	-3.1	i
CCCCNC(=O)C1(C)CCN1C(=O)c1ccc(OC)c(F)c1 (stereo unspecified)	nt	nt	nt	nt	-2.0	1.4	i
O=C(c1ccco1)N1CCN(c2ccc([N+](=O)[O-])c(N3CCOCC3)c2)CC1	-6%	0.66	11	-3.5	2.8	3.7	i
